Screens from PubChem.
Mtb MbtI inh: MbtI salicylate synthase inhibition. purified MbtI enzyme, fluorescence intensity read-out. inhibition, %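 (about 17 µg/mL by stock and volumes)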. P9WFX0. AID 493033. hit rate 0.89% among 100,000;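 active = above 50% in both replicates, above 80% if mildly self-fluorescent; inactive = the rest, strongly fluorescent compounds included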;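 note: 0% = mean of negative and 100% = mean of positive controls; one replicate is shown; some compounds called inactive have numbers as strong as hits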
Target sequence (P9WFX0 whole entry, looked up): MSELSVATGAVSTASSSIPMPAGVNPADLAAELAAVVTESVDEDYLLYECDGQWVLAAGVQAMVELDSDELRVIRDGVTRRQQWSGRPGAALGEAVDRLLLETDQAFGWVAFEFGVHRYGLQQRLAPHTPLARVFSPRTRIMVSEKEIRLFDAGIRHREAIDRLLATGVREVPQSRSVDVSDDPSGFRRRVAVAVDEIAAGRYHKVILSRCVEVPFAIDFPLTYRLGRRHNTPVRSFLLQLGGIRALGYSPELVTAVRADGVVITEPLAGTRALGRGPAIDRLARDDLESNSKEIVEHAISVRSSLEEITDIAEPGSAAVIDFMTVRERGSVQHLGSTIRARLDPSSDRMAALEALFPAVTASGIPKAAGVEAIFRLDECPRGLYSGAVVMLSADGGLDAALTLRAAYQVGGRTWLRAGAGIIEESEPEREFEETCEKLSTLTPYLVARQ
MenB inh: Mtb MenB enzyme inhibition; MenB enzyme assay, absorbance read-out; some hits fall short of the stated cut; hit rate 0.43% among 100,000; P9WNP5; inhibition, %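 (about 12 µg/mL by stock and volumes)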;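 active = mean of two replicates above 30%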;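 note: 0% = no compound and 100% = wells with inactive enzyme; the first replicate is given; strong numbers were not always called active; inactives centre near -10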
Target sequence (P9WNP5 whole entry, looked up): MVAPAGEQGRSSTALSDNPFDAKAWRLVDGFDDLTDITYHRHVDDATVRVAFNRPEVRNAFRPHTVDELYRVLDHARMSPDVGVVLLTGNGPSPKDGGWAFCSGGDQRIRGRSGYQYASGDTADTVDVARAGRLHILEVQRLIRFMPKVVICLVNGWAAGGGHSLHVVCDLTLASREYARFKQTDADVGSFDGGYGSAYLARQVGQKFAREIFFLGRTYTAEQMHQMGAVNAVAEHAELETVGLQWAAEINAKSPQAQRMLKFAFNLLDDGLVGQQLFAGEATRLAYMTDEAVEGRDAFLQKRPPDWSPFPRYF
PV pol inh: inhibitors of poliovirus RNA polymerase binding and polymerization; poliovirus polymerase elongation, fluorescence polarization; active compounds read low; % elongation, % (compound at 16.7 µg/mL); hit rate 0.66% among 150,000; in the data active = % elongation below about 90%; note: some results filed as inactive read as strong as hits
PV pol inh intensity: also measured in PV pol inh; calls as there; % elongation; measured here: total intensity read-out; formula for this scale not given here;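 total fluorescence in place of polarization; lower means less elongation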
Starred values were filed as active, the others as inactive; & = joins results of further samples. The order is random; 1.8% or so of the library scored in one or more.

For Cc1ccc(C2CC(=O)C(C=NCCN3CCNCC3)=C(O)C2)cc1 (stereo not drawn) the results were Mtb MbtI inh 21.8, MenB inh -11.2, PV pol inh 102.0 and PV pol inh intensity 100.0.
Screening Cc1cccc(-n2c(C)cc(C(=S)N3CCOCC3)c2C)c1C returned Mtb MbtI inh 13.9, MenB inh -21.9, PV pol inh 103.0 and PV pol inh intensity 106.0.
For CSC(=NCc1ccco1)Nc1cc(-c2ccccc2)[nH]n1 the results were Mtb MbtI inh -1.9, MenB inh -28.0, PV pol inh 102.0 and PV pol inh intensity 106.0.
`O=C(OC1CCOC1=O)c1ccc2c(c1)C(=O)N(Cc1ccccc1)C2=O` (stereo not drawn) gave Mtb MbtI inh -17.1, MenB inh 0.9, PV pol inh 102.0 and PV pol inh intensity 102.0.
`CN(C)C(=O)Nc1cccc(OC(=O)N(C)C)c1` gave Mtb MbtI inh -4.2, MenB inh 6.2, PV pol inh 102.0 and PV pol inh intensity 103.0.
For O=C(Nc1cccc2ccccc12)NC1CC1 the results were Mtb MbtI inh -15.8, MenB inh 18.8, PV pol inh 102.0 and PV pol inh intensity 102.0.
Screening O=C(c1ccc(Cn2c(=O)[nH]c3ccsc3c2=O)cc1)N1CCCCC1 returned Mtb MbtI inh -9.2, MenB inh 2.2, PV pol inh 102.0 and PV pol inh intensity 100.0.
For O=C(Oc1ccc(-c2nnco2)cc1)c1cc2c(s1)CCCC2 the results were Mtb MbtI inh 14.5, MenB inh 9.0, PV pol inh 99.0 and PV pol inh intensity 92.0.
For Cc1ccnc2nc(C(=O)N3C(=NCc4ccccc4)SCC3(C)C)nn12 the results were Mtb MbtI inh -8.3, MenB inh -113.1, PV pol inh 99.0 and PV pol inh intensity 105.0.
CCOC(=O)C1CCCN(c2ncnc3[nH]ncc23)C1 (stereo not drawn) was read as Mtb MbtI inh -2.2, MenB inh -4.5, PV pol inh 99.0 and PV pol inh intensity 105.0.
O=C(COc1ccc(/C=c2/sc3nc4ccccc4n3c2=O)cc1)N1CCCC1 was read as Mtb MbtI inh -2.7, MenB inh -26.7, PV pol inh 103.0 and PV pol inh intensity 108.0.
CCN1C(=O)/C(=C\c2cccc3c2-c2ccccc2C3=O)OC1=S was read as Mtb MbtI inh -1.1, MenB inh -31.6, PV pol inh 103.0 and PV pol inh intensity 106.0.
Screening Cc1noc(C)c1C(=O)Nc1ccc(S(=O)(=O)N2CCCc3ccccc32)cc1 returned Mtb MbtI inh -4.1, MenB inh -17.0, PV pol inh 101.0 and PV pol inh intensity 101.0.
CC(NC(=O)c1ccncc1)C(c1cccs1)N1CCN(Cc2ccccc2)CC1 (stereo not drawn) was read as Mtb MbtI inh -7.7, MenB inh -16.4, PV pol inh 103.0 and PV pol inh intensity 106.0.
For CC1(C)Cc2nc(N)c(C#N)cc2CO1 the results were Mtb MbtI inh inactive, MenB inh -8.5, PV pol inh 102.0 and PV pol inh intensity 103.0.
`Cc1cc(C)cc(NC(=S)N(CCCN2CCOCC2)C(C)c2cc3ccccc3o2)c1` (stereo not drawn) gave Mtb MbtI inh -12.0, MenB inh -35.5, PV pol inh 101.0 and PV pol inh intensity 104.0.
Screening O=C(NCc1ccccc1)c1cccc(S(=O)(=O)N2CCCC2)c1 returned Mtb MbtI inh 10.2, MenB inh -13.5, PV pol inh 97.0 and PV pol inh intensity 98.0.
Screening CCN1C(=O)C(CC(=O)Nc2ccc(F)cc2)N(CCc2ccccc2)C1=S (stereo not drawn) returned Mtb MbtI inh -4.8, MenB inh -17.4, PV pol inh 100.0 and PV pol inh intensity 99.0.
Screening CCn1c(=O)[nH]c(=O)c2c(C(F)(F)F)cc(-c3ccc(C)cc3)nc21 returned Mtb MbtI inh 4.5, MenB inh -8.5, PV pol inh 98.0 and PV pol inh intensity 96.0.
Cn1c(=NC(=O)c2ccc(F)cc2)sc2ccccc21 was read as Mtb MbtI inh 7.1, MenB inh -16.6, PV pol inh 104.0 and PV pol inh intensity 103.0.
`O=C(OCCN1CCCCC1)c1cccc(COc2ccc3ccccc3c2)c1` gave Mtb MbtI inh 6.8, MenB inh -5.4, PV pol inh 98.0 and PV pol inh intensity 101.0.
For COc1cc(OC)cc(C(=O)Nc2ccc(OCC(=O)O)cc2)c1 the results were Mtb MbtI inh 0.4, MenB inh -16.4, PV pol inh 101.0 and PV pol inh intensity 102.0.
`COC(=O)C1=C(C)N(CC2CCCO2)C(=O)/C1=C/c1ccc(CNS(=O)(=O)c2ccc(Cl)cc2)o1` (stereo not drawn) gave Mtb MbtI inh 4.8, MenB inh -21.6, PV pol inh 100.0 and PV pol inh intensity 101.0.
CC(C)NC(=O)c1ccc(CS(=O)Cc2ccc(Cl)cc2)o1 (stereo not drawn) was read as Mtb MbtI inh -14.8, MenB inh 7.0, PV pol inh 101.0 and PV pol inh intensity 102.0.
OC(CNCc1ccco1)COc1ccc(OCC(O)CNCc2ccco2)cc1 (stereo not drawn) was read as Mtb MbtI inh 5.0, MenB inh 1.9, PV pol inh 102.0 and PV pol inh intensity 104.0.
For O=C(Cn1cncn1)Nc1c(Cl)cc(Cl)cc1Cl the results were Mtb MbtI inh 10.2, MenB inh 13.4, PV pol inh 100.0 and PV pol inh intensity 96.0.
Cc1cc(Oc2ccccc2)nc(OCC#N)n1 was read as Mtb MbtI inh -20.1, MenB inh -11.3, PV pol inh 100.0 and PV pol inh intensity 103.0.
Screening O=C1c2ccccc2NC(c2ccccn2)N1c1ccc(Cl)cc1 (stereo not drawn) returned Mtb MbtI inh -43.9, MenB inh -19.4, PV pol inh 102.0 and PV pol inh intensity 112.0.
For CC1CN=C(NCc2ccncc2)S1 (stereo not drawn) the results were Mtb MbtI inh -8.2, PV pol inh 103.0 and PV pol inh intensity 108.0.
`COc1ccccc1NC(=O)CCC1COc2ccccc2O1` (stereo not drawn) gave Mtb MbtI inh -22.4, MenB inh -5.5, PV pol inh 101.0 and PV pol inh intensity 102.0.
Cc1ccc(C(=O)COC(=O)c2ccc(-n3cnnn3)cc2)c(C)c1 (tested in a mixture with another compound) was read as MenB inh -9.9, PV pol inh 103.0 and PV pol inh intensity 110.0.
For CC(C)NC(=O)CC1Oc2ccc(Cl)cc2NC1=O (stereo not drawn) the results were Mtb MbtI inh 1.0, MenB inh -27.6, PV pol inh 104.0 and PV pol inh intensity 102.0.
Cc1oc(/N=C/c2ccccc2)c(C#N)c1C was read as Mtb MbtI inh -20.6, MenB inh -41.2, PV pol inh 101.0 and PV pol inh intensity 108.0.
For O=C1NCCCCC1NS(=O)(=O)c1ccc(Cl)cc1 (stereo not drawn) the results were Mtb MbtI inh 1.1, MenB inh -5.7, PV pol inh 102.0 and PV pol inh intensity 97.0.
For O=C1CSCC(=O)N1c1cc(C(F)(F)F)cc(C(F)(F)F)c1 the results were Mtb MbtI inh 12.6, MenB inh 12.3, PV pol inh 101.0 and PV pol inh intensity 101.0.
Screening COc1ccc(CN(C)C(=O)COc2ccccc2)cc1 returned Mtb MbtI inh -8.4, MenB inh -28.2, PV pol inh 102.0 and PV pol inh intensity 99.0.

Part of the list above in order of formula weight, ascending:
Cc1cc(Oc2ccccc2)nc(OCC#N)n1 was read as Mtb MbtI inh -20.1, MenB inh -11.3, PV pol inh 100.0 and PV pol inh intensity 103.0.
Screening O=C1c2ccccc2NC(c2ccccn2)N1c1ccc(Cl)cc1 (stereo not drawn) returned Mtb MbtI inh -43.9, MenB inh -19.4, PV pol inh 102.0 and PV pol inh intensity 112.0.
For O=C1CSCC(=O)N1c1cc(C(F)(F)F)cc(C(F)(F)F)c1 the results were Mtb MbtI inh 12.6, MenB inh 12.3, PV pol inh 101.0 and PV pol inh intensity 101.0.
OC(CNCc1ccco1)COc1ccc(OCC(O)CNCc2ccco2)cc1 (stereo not drawn) was read as Mtb MbtI inh 5.0, MenB inh 1.9, PV pol inh 102.0 and PV pol inh intensity 104.0.

Next structures follow.
Screening COCCn1c(C23CC4CC(CC(C4)C2)C3)n[nH]c1=S returned Mtb MbtI inh -2.2, MenB inh -24.0, PV pol inh 101.0 and PV pol inh intensity 103.0.
For Cc1cc(OCC(=O)N(C)c2ccccc2)cc(C)c1Cl the results were Mtb MbtI inh -4.6, MenB inh -26.8, PV pol inh 100.0 and PV pol inh intensity 101.0.
For CCCn1ncc(OC)c(Cl)c1=O the results were Mtb MbtI inh 0.7, MenB inh -14.5, PV pol inh 98.0 and PV pol inh intensity 102.0.
For COc1ccc(NC(=O)C(Cc2c[nH]c3ccccc23)NC(C)=O)cc1OC (stereo not drawn) the results were Mtb MbtI inh 9.6, MenB inh -3.4, PV pol inh 100.0 and PV pol inh intensity 98.0.
Screening Cc1cccc(C)c1NCc1nnc(SCC#N)n1-c1ccccc1 returned Mtb MbtI inh -13.1, MenB inh -21.5, PV pol inh 98.0 and PV pol inh intensity 98.0.
For Cc1cc(NC(=O)c2ccc3c(c2)S(=O)(=O)c2ccccc2C3=O)n(-c2ccccn2)n1 the results were Mtb MbtI inh -8.9, MenB inh -15.6, PV pol inh 100.0 and PV pol inh intensity 104.0.
Screening Cc1noc(N)c1C(=O)OCc1c(F)cccc1Cl returned Mtb MbtI inh -9.2, MenB inh -7.6, PV pol inh 105.0 and PV pol inh intensity 109.0.
Screening CC(C)CNC(=O)c1cc(CC(C)C)on1 returned Mtb MbtI inh -3.0, MenB inh -18.0, PV pol inh 100.0 and PV pol inh intensity 102.0.
`CCCCC/C=C\C/C=C\C/C=C\C/C=C\CCCC(N)=O` gave Mtb MbtI inh -17.2, MenB inh -2.7, PV pol inh 102.0&101.0 and PV pol inh intensity 101.0&100.0.
`Cn1cccc1CNCCc1ccc(F)cc1` gave Mtb MbtI inh -7.5, MenB inh 7.8, PV pol inh 106.0 and PV pol inh intensity 110.0.
`Cc1cc(C(C)(C)C)cc(C)c1CCN` gave Mtb MbtI inh -7.4, MenB inh -18.1, PV pol inh 104.0 and PV pol inh intensity 109.0.
CC(=O)N1c2ccc(S(=O)(=O)N3CCC(C(=O)N4CCn5c4nc4ccccc45)CC3)cc2CC1C (stereo not drawn) was read as Mtb MbtI inh -19.3, MenB inh -1.7, PV pol inh 101.0 and PV pol inh intensity 104.0.
`CCC(=O)NC(Nc1cccnc1Cl)(C(F)(F)F)C(F)(F)F` gave Mtb MbtI inh -8.1, MenB inh -13.3, PV pol inh 104.0 and PV pol inh intensity 109.0.
COc1ccc(/C=N/NC(=O)c2ccncc2)cc1CN1CCN(c2ccc(F)cc2)CC1 was read as Mtb MbtI inh -14.6, MenB inh 7.3, PV pol inh 101.0 and PV pol inh intensity 103.0.
For CC(C)(O/N=C(/C(=O)N[C@@H]1C(=O)N2C(C(=O)[O-])=C(C[n+]3ccccc3)CS[C@H]12)c1csc(N)n1)C(=O)O the results were Mtb MbtI inh 2.5, MenB inh -4.7, PV pol inh 98.0 and PV pol inh intensity 102.0.
Screening CN(C(=O)c1cc2c(s1)-c1ccc(Cl)cc1SC2)c1cccc(Cl)c1 returned Mtb MbtI inh 11.6, MenB inh -19.4, PV pol inh 104.0 and PV pol inh intensity 107.0.
O=C(c1cnn(-c2ccccc2)n1)N(CC1CCCO1)C1CCS(=O)(=O)C1 (stereo not drawn) was read as Mtb MbtI inh 10.6, MenB inh 5.5, PV pol inh 96.0 and PV pol inh intensity 101.0.
For O=C(CSc1nnc(-c2ccco2)o1)NC(=O)C1COc2ccccc2O1 (stereo not drawn) the results were Mtb MbtI inh -16.6, MenB inh -8.8, PV pol inh 105.0 and PV pol inh intensity 109.0.
O=C(Nc1ccccc1O)c1cccc(S(=O)(=O)N2CCCC2)c1 was read as Mtb MbtI inh -1.8, MenB inh -10.6, PV pol inh 104.0 and PV pol inh intensity 102.0.
Screening O=S(=O)(c1ccccc1)c1ccc(C(F)(F)F)cn1 returned Mtb MbtI inh -4.5, MenB inh -13.1, PV pol inh 104.0 and PV pol inh intensity 109.0.
Cc1csc(C2C(=O)NC(S)=C(C#N)C23CCCCC3)n1 (stereo not drawn) was read as Mtb MbtI inh 22.4, MenB inh -48.5, PV pol inh 102.0 and PV pol inh intensity 104.0.
CC(C)(C)NC(=O)CSc1nc(O)cc(=O)[nH]1 was read as Mtb MbtI inh 1.2, MenB inh 11.4, PV pol inh 103.0 and PV pol inh intensity 104.0.
Screening COc1cccc(OCCSc2nc3ccccc3c(=O)[nH]2)c1 returned Mtb MbtI inh 12.6, MenB inh -10.1, PV pol inh 99.0 and PV pol inh intensity 101.0.
COc1ccc(S(=O)(=O)NCCN2CCOCC2)cc1OC was read as MenB inh -4.1, PV pol inh 104.0 and PV pol inh intensity 102.0.

Looked up by compound from the list above (2):
COc1ccc(/C=N/NC(=O)c2ccncc2)cc1CN1CCN(c2ccc(F)cc2)CC1 was read as Mtb MbtI inh -14.6, MenB inh 7.3, PV pol inh 101.0 and PV pol inh intensity 103.0.
Screening O=S(=O)(c1ccccc1)c1ccc(C(F)(F)F)cn1 returned Mtb MbtI inh -4.5, MenB inh -13.1, PV pol inh 104.0 and PV pol inh intensity 109.0.

(cont.)
`O=C(CN1CCCCC1)Nc1ccccc1C(=O)NC1CC1` gave Mtb MbtI inh -0.2, MenB inh 6.9, PV pol inh 102.0 and PV pol inh intensity 104.0.
`NS(=O)(=O)c1cccc(-n2cnnn2)c1` gave Mtb MbtI inh -6.3, MenB inh -0.8, PV pol inh 102.0 and PV pol inh intensity 104.0.
For Cc1cc(C)c2c(n1)SCC(=O)N2CC(=O)NC1CCN(Cc2ccccc2)CC1 the results were Mtb MbtI inh -3.1, MenB inh -19.9, PV pol inh 106.0 and PV pol inh intensity 102.0.
`Cc1ccn2c(=O)c(-c3ccccc3)c(O)nc2c1` gave Mtb MbtI inh -28.1, MenB inh -2.4, PV pol inh 102.0 and PV pol inh intensity 101.0.
`CCCNC(=O)CN1CCN(c2nc(C)nc3scc(-c4cccs4)c23)CC1` gave Mtb MbtI inh 3.6, MenB inh -43.9, PV pol inh 106.0 and PV pol inh intensity 112.0.
